Screening results (PubChem BioAssay)
Bead autofluor = compound fluorescence in toxin protease inhibitor counterscreen; compound autofluorescence counterscreen, microsphere flow cytometry; stronger effect = higher value; fluorescence intensity (concentration not given with the values); 360,000 compounds, 3.1% hits; AID 624483;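 active = at least 3 SD above the mean of all compounds, about 16000 in these data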;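 also: 100 nL of 1 mM stock went into each well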
PrP 5UTR inh = inhibition of PrP 5' UTR reporter expression | cell-based PrP 5' UTR mRNA reporter, plate reader | inhibition, % (no concentration beside the values) | 340,000 compounds, 0.35% hits | AID 488862, 2010;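 active = every replicate at 50% or more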;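 also: 0 = median of the neutral control wells; tested in H4 reporter cells; numbers are from one replicate; inactives centre near -14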
Numbers without * were called inactive; & = joins results of further samples. These rows are one share of the data; count on the stated rates, not on these rows.

SMILES | Bead autofluor | PrP 5UTR inh
COc1cc(N/C=C(\C(C)=O)c2ccccc2)cc(OC)c1 | 2541 | -6
CC1([N+](=O)[O-])COP(=O)(Nc2cccc(Br)c2)OC1 (stereo unspecified) | 16672* | -23
COC(=O)c1ccc2c(c1)C(NC(C)=O)CCc1cc(OC)c(OC)c(OC)c1-2 (stereo unspecified) | 3598 | 51
O=C(NCCNCc1cccc(Cl)c1)c1ccco1 | 3949 | -4
CCSc1ccc([C@@H]2[C@H]3C(=O)N(C)C(=O)[C@H]3[C@]3(C(=O)OC)CCCCN23)cc1 | 3354 | -7
CCOC(=O)[C@H]1[C@H]2COc3ccc(OC)cc3[C@@H]2N2C(=O)c3ccc(F)cc3NC(=O)[C@@]12C | 2831 | -26
c1ccc(CNCCCNCCCCNCCCNCc2ccccc2)cc1 | 3138 | -27
O=C1C=C(c2ccc(Oc3ccccc3)cc2)C[C@@H](c2ccc3c(c2)OCO3)C1 | 3384 | -17
Cn1c(=O)c2[nH]c(CCCc3ccc([N+](=O)[O-])cc3)nc2n(C)c1=O | 4576 | -23
CCC(C)[C@H]1CNCCN1CCC12CC3CC(CC(C3)C1)C2 (stereo partly specified) | 3445 | -15
C[C@H]1CN([C@@H](C)CO)C(=O)c2cccc(NC(=O)Nc3ccc(C(F)(F)F)cc3)c2O[C@H]1CN(C)C | 2800 | 11
COc1ccc(NC(=S)Nn2cnnc2)c(OC)c1 | 5581 | -20
O=C1CCC/C=C\C[C@@H](CC(=O)N(CCO)Cc2ccccc2)C(=O)N[C@H](c2ccccc2)CO1 | 4232 | -42
COc1cccc2c1cc1c(=O)n(CC(=O)N3CCCC3)nc(C)n12 | 4946 | -26
CN1[C@@H]2CC[C@H]1CC(OC1c3ccccc3CCc3ccccc31)C2 (stereo partly specified) | 4233 | -11
CCCc1nc2sc3ccccc3c(=O)c2c(=O)n1Cc1ccccc1 | 3493 | 1
COc1ccc(C(=O)Nc2cccc(C(=O)Nc3cc(C)ccn3)c2)cc1 | 3405 | -4
O=[N+]([O-])c1cccc(C=NNC(=S)NC23CC4CC(CC(C4)C2)C3)c1 | 3584 | -12
COC(=O)C1=C(c2ccc(F)cc2F)C[C@@H]2CC[C@H]1N2C(=O)NCCNC(C)=O | 4065 | -22
COC(=O)C1=C(c2ccc(OC(F)(F)F)cc2)C[C@@H]2CC[C@H]1N2C(=O)NCCOc1ccccc1 | 2952 | -9
COc1ccc2ccc3cccc[n+]3c2c1 | 4087 | -46
Cn1c(=O)[nH]c(=O)c2[nH]c(CO)nc21 | 4292 | -10
C=C1C(=O)O[C@H]2[C@H]1[C@H](OC(=O)/C(C)=C\C)C[C@]1(CO1)[C@@H]1[C@H](OC(C)=O)C=C(C)[C@]21O | 3970 | -17
C(=NN=C1c2ccccc2-c2ccccc21)c1c[nH]c2ccccc12 | 3302 | -14
C=CC(C)(C)O[C@@H]1O[C@H](CO)[C@@H](O)[C@H](O)[C@H]1O | 3785 | -20
C=CC[C@@H](CC(=O)N[C@H](CO)Cc1ccccc1)C(=O)N[C@@H](C)COC(=O)[C@@H](CC=C)Cc1ccc(F)cc1 | 3018 | -32
O=C(O)CCCc1ccccc1 | 4289 | 1
COC(=O)C1=C(c2ccc(F)cc2F)C[C@@H]2CC[C@H]1N2C(=O)NCCOc1ccccc1 | 3726 | -8
C=CCC[C@H](Cc1ccc(F)cc1)C(=O)OC[C@@H](Cc1c[nH]c2ccccc12)NC(=O)[C@@H](CC=C)CC(=O)N[C@@H](CO)Cc1ccccc1 | 2857 | 4
CC(C)(C)OC(=O)N(CCc1ccccc1)Cc1ccccc1OCc1cccc(NC(=O)/C=C/c2ccccc2)c1 | 3760 | -9

Pulled by structure from the list above, 4 records:
SMILES | Bead autofluor | PrP 5UTR inh
C=CCC[C@H](Cc1ccc(F)cc1)C(=O)OC[C@@H](Cc1c[nH]c2ccccc12)NC(=O)[C@@H](CC=C)CC(=O)N[C@@H](CO)Cc1ccccc1 | 2857 | 4
CCCc1nc2sc3ccccc3c(=O)c2c(=O)n1Cc1ccccc1 | 3493 | 1
O=C(O)CCCc1ccccc1 | 4289 | 1
COC(=O)C1=C(c2ccc(F)cc2F)C[C@@H]2CC[C@H]1N2C(=O)NCCNC(C)=O | 4065 | -22

Carrying on:
SMILES | Bead autofluor | PrP 5UTR inh
COc1ccc(C(=O)N/N=C/c2ccc(OC)c(COc3c(F)c(F)cc(F)c3F)c2)cc1 | 5309 | -13
C=C1C[C@H](O[C@@H]2O[C@H](CO)[C@@H](O)[C@H](O)[C@H]2O)[C@@H]2[C@H](OC(=O)[C@H]2C)[C@H]2[C@H](C)[C@@H](O)C[C@@H]12 | 3639 | -16
O=C(CNC(=O)c1ccc(Cl)cc1Cl)OCc1nnc(-c2ccccc2Br)o1 | 3770 | -15
Nc1cc(=O)n(Cc2ccccc2)c(=O)n1Cc1ccccc1 | 3426 | -31
CC(C)n1cnc2c(NCc3ccccc3)cc(N[C@H](C)CO)cc21 | 5319 | 5
CC(C)(C)[C@H]1COC(=O)[C@@H](Cc2ccc(F)cc2)C/C=C\C[C@@H](CC(=O)N[C@H](CO)Cc2ccccc2)C(=O)N1 | 3834 | -6
COc1ccc(O)c(C(=O)c2cnn(C(=O)c3cccc(N(C)C)c3)c2)c1 | 3537 | -4
CC(=NNC(=S)N1CCCCCC1)c1ccccn1 | 3179 | 42
CC(C)NC(=O)N(C)C[C@H]1Oc2c(NS(=O)(=O)c3cccs3)cccc2C(=O)N([C@H](C)CO)C[C@@H]1C | 3284 | 4
CCN1CC(C)(C)N(C(=O)c2ccccc2)CC1(C)C | 3673 | -21
CC(CNC1CCCCC1)OC(=O)c1ccc([N+](=O)[O-])cc1 (stereo unspecified) | 3582 | -27
CCSc1nc(COC(=O)NC)c(COC(=O)NC)n1C | 15137 | -9
CC1(C)N=C(N)N=C(N)N1c1cccc(C#N)c1 | 3346 | -37
CCOC(=O)c1ccc(NC(=O)c2nc[nH]c2C(=O)NCCNC(=O)c2[nH]cnc2C(=O)Nc2ccc(C(=O)OCC)cc2)cc1 | 4312 | 5
CCCCNc1c(-c2ccc(SC3CCCCC3)c(OC)c2)nc2ccc(C)cn12 | 3563&6526 | -11
Cc1cccc(OCC(=O)NNC(=O)c2ccc3nc[nH]c3c2)c1 | 3776 | -22
COc1cccc(C(C)=C2SC(=S)NC2=O)c1 | 3975 | 6
Cc1cccc(C)c1NC(=S)/N=C/N(C)C | 4115 | -5
CC1CCCCC12C(=O)NC(=O)NC2=O (stereo unspecified) | 3020 | -14
CCC[C@@H]1C[C@@H](C(=O)N[C@H]([C@@H](C)O)[C@H]2O[C@H](SC)[C@H](O)[C@@H](O)C2O)N(C)C1 (stereo partly specified) | 5357 | -12&-12
Cc1cc(C)c(C2=CC(=O)C[C@H](c3ccc4c(c3)OCO4)C2)c(C)c1 | 3249 | -19
COC(=O)C1=C(c2ccc(F)cc2OCc2ccccc2)C[C@@H]2CC[C@H]1N2C(=O)N1CCCCC1 | 2893 | -18
CCN1C[C@@H]2[C@@H]3C(=O)N(Cc4ccccc4)C(=O)[C@@H]3[C@](Cc3ccccc3)(C1=O)N2C(=O)c1ccc(C(C)(C)C)cc1 | 3783 | -25
O=C(NCc1ccccc1)c1cccc(NC(=O)C2CC2)c1 | 3936 | -24
Oc1ccc(/C=N/N=C(c2ccccc2)c2ccccc2)c(O)c1O | 2206 | -5
CCOC(=O)[C@H]1[C@H]2COc3ccc(OC)cc3[C@@H]2N2C(=O)CN(C)C(=O)[C@@]12C | 3524 | -17
CC[C@@]1(C(=O)OC)N[C@H](CN(C)C(=O)Nc2ccc(C)cc2)[C@@H]2C(=O)N(Cc3ccccc3)C(=O)[C@@H]21 | 3572 | -27
CCOC(=O)[C@H]1[C@H]2COc3ccc(Cl)cc3[C@@H]2N2C(=O)[C@@H](C)NC(=O)[C@@]12C | 3518 | -3
COc1cc(C(=O)O)cc(OC)c1OC | 4170 | -6
CC(C)(C)OC(=O)NCCCC[C@@H](C(=O)NCCCCCCCCCCC(=O)N1CCN(C(=O)OC(C)(C)C)CC1)n1cc(CCCC(=O)O)nn1 | 3409 | -26
Oc1ccccc1C=NN=C1c2ccccc2-c2ccccc21 | 3323 | -53
COc1ccc(/C=N/NC(=O)c2ccc(-n3cnnn3)cc2)cc1 | 5258 | -16
CCOc1ccc(CCN2C(=S)N([C@@H](Cc3ccc(O)cc3)CN3CCCC3CN3C(=S)NC[C@@H]3Cc3ccc(O)cc3)C[C@@H]2CC(C)C)cc1 (stereo partly specified) | 3843 | -16
CCCCC[C@@H](O)c1cc2ccccc2c(=O)o1 | 4004 | -30
CCOC(=O)[C@H]1[C@H]2COc3cc(OC)ccc3[C@@H]2N2C(=O)CN(CC3CCCO3)C(=O)[C@@]12C (stereo partly specified) | 4130 | -21
O=C(Nc1ccccc1C(F)(F)F)NC1(C(=O)N2CCOCC2)CCCCC1 | 3582 | -9
CN(C)c1ccc(/C=C/c2cc[n+](C)c3ccccc23)cc1 | 3861&2419 | 10&5
Cc1ccc(OCC(=O)N/N=C/c2cn(Cc3ccccc3)c3ccccc23)cc1 | 2555 | 3
Cc1ccc(S(=O)(=O)N(C)c2ccc(OCC(=O)OCc3ccc(C#N)cc3)cc2)cc1 | 3673 | -11
C[C@H](CO)N1C[C@H](C)[C@@H](CN(C)C(=O)Nc2ccccc2)Oc2ccc(NC(=O)Cc3ccccc3)cc2C1=O | 3809 | 0
COC(=O)C1=C(C)N(Cc2ccccc2)C(=NCc2cc(OC)c(OC)c(OC)c2)N[C@H]1c1ccc(Br)cc1 | 4949 | 19
C=CC[C@@H](Cc1ccc(F)cc1)C(=O)OC[C@H]1CCCN1C(=O)[C@H](CC=C)CC(=O)N[C@H](CO)Cc1ccccc1 | 2842 | -2
Oc1ccc(C=NNc2ccccn2)c(O)c1 | 4090 | 5
O=C1C=C(c2cccc(Br)c2)C[C@@H](c2ccc(F)cc2)C1 | 3976 | -4
Cn1c(=S)c2[nH]c(SCCC(C)(C)C)nc2n(C)c1=O | 2932 | -5

The last three entries of the part above come first, to join the parts:
SMILES | Bead autofluor | PrP 5UTR inh
Oc1ccc(C=NNc2ccccn2)c(O)c1 | 4090 | 5
O=C1C=C(c2cccc(Br)c2)C[C@@H](c2ccc(F)cc2)C1 | 3976 | -4
Cn1c(=S)c2[nH]c(SCCC(C)(C)C)nc2n(C)c1=O | 2932 | -5
O=C(Nc1cc(S(=O)(=O)Nc2ccc(Cl)cc2)ccc1O)c1ccc(F)cc1F | 2937 | 2
C#CCOCCOCCOCCNc1nc(N2CCN(C(=O)[C@H](CCCCN)n3cc(CN)nn3)CC2)nc(N2CCN(C(=O)[C@H](CCCCN)n3cc([C@@H](N)CC(N)=O)nn3)CC2)n1 | 3598 | -12
Cc1noc(C)c1NC(=O)N(C)C[C@H]1Oc2c(NC(=O)c3ccncc3)cccc2C(=O)N([C@H](C)CO)C[C@@H]1C | 2819 | 4
CC1(C(=O)Nc2cccc(-n3cnnn3)c2)Cc2ccccc2C(=O)O1 (stereo unspecified) | 3456 | -18
C[C@H]1CN([C@@H](C)CO)C(=O)c2cccc(NS(=O)(=O)c3ccc(Cl)cc3)c2O[C@@H]1CN(C)CC1CCCCC1 | 3619 | -9
Nc1cccc2cccc([N+](=O)[O-])c12 | 2896 | 5
CC[C@@H](CCC=C(C)C)C(=O)N(Cc1ccccc1)c1ccccc1 | 3108 | -6
CCOC(=O)[C@H]1[C@H]2COc3ccc(Br)cc3[C@@H]2N2C(=O)CN(Cc3ccc(C)cc3)C(=O)[C@@]12C | 2912 | -13
C[C@@H](NC(=O)c1nc[nH]c1C(=O)NCc1ccccc1)c1ccccc1 | 3649 | -8
Cc1noc(C)c1C(=O)OC(C)C(=O)Nc1ccc2c(c1)OCO2 (stereo unspecified) | 3852 | -14
COC(=O)[C@H](CC(C)C)N(Cc1ccccc1)S(=O)(=O)N(Cc1ccc(OC)cc1)[C@@H](CC(C)C)C(=O)OC | 3556 | -11
COc1ccccc1C=NN=Cc1ccccc1OC | 4138 | -19
CCC(C)C(CO)NCCCn1cnc(C(=O)Nc2ccc(C)c(C)c2)n1 (stereo unspecified) | 3653 | -14
COc1ccc(C(=O)NCCN(C)C)c2nc3ccccc3cc12 | 3283 | 15
CC(=O)N(C)c1ccc(C=C2C=Cc3ccccc32)cc1 | 3285 | -34
O=S(=O)(CCNCCc1ccccc1)NC1CCCCC1 | 3941 | -16
CCN(CC(=O)Nc1ccccc1OC)C(=O)CN1C(=O)NC(C)(c2ccc3ccccc3c2)C1=O (stereo unspecified) | 3669 | -6
CS(=O)(=O)Cc1nc2ccccc2n1CC(=O)Nc1cccc(S(=O)(=O)N2CCCC2)c1 | 2843 | -16
CNC(=O)CSP(=S)(OC)OC | 5608 | -44
O=S(=O)(c1ccc(F)cc1F)N1CCN(CCO)CC1 | 3885 | -24
COC(=O)c1cccc(-n2sc3ccccc3c2=O)c1 | 4675 | -24
COc1ccccc1CNS(=O)(=O)CCNCCc1ccccc1 | 2852 | -6
CC(=O)Nc1c(Cl)cc2c(c1Cl)Cc1cc(C#N)ccc1-2 | 3705 | -2
C[C@H](CO)N1C[C@H](C)[C@@H](CN(C)S(C)(=O)=O)Oc2c(NC(=O)C3CCCCC3)cccc2C1=O | 4154 | 4
C=CCC[C@H](Cc1ccc(F)cc1)C(=O)OC[C@H](Cc1c[nH]c2ccccc12)NC(=O)[C@@H](CC=C)CC(=O)N[C@@H](CO)Cc1ccccc1 | 3757 | -13

Reformatted: entries from further up
CCN(CC(=O)Nc1ccccc1OC)C(=O)CN1C(=O)NC(C)(c2ccc3ccccc3c2)C1=O (stereo unspecified)
  Bead autofluor: 3669
  PrP 5UTR inh: -6
CS(=O)(=O)Cc1nc2ccccc2n1CC(=O)Nc1cccc(S(=O)(=O)N2CCCC2)c1
  Bead autofluor: 2843
  PrP 5UTR inh: -16
